Screens (PubChem BioAssay)
miR-21 reporter: qHTS Assay for Modulators of miRNAs and/orActivators of miR-21; HeLa miR-21 FLuc reporter, luciferase, 48 h; Potency, µM (series often up to 38.3 µM), for the others: at the top dose reporter change, positive = more light; 340,000 tested, under 10 active; AID 2288, 2010; active = well fitted rising curve with a large enough effect; inconclusive = small, poorly fitted or top-dose-only effect; inactive = no such curve, though single readings can be large or run the other way;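 note: % of control where 0% means no effect; miR-21 action dims this reporter so a rising signal means less miR-21 action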
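HeLa cells stably expressing CMV-driven firefly luciferase with a downstream miR-21 binding sequence, endogenously expressing miR-21, were treated with titrations (up to about 40uM final) for 48 hours at 37 degree Celsius. Luciferase luminescence was read after lysis.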
GLA inh pH 4.5: qHTS Assay for Inhibitors of Human alpha-Galactosidase at pH 4.5; purified enzyme, 4-MU-alpha-Gal fluorescence, pH 4.5; activity change, negative = inhibition, % at 105 µM; 230,000 tested, under 10 active; inconclusive = small, poorly fitted or top-dose-only inhibition, or a rising curve; inactive = flat fitted curve, though single readings scatter; no compound was filed as active;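 note: 0% = full activity with enzyme and -100% = basal without enzyme; dose as in the result columns while the protocol names 77 µM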
Target sequence (P06280 whole entry, looked up): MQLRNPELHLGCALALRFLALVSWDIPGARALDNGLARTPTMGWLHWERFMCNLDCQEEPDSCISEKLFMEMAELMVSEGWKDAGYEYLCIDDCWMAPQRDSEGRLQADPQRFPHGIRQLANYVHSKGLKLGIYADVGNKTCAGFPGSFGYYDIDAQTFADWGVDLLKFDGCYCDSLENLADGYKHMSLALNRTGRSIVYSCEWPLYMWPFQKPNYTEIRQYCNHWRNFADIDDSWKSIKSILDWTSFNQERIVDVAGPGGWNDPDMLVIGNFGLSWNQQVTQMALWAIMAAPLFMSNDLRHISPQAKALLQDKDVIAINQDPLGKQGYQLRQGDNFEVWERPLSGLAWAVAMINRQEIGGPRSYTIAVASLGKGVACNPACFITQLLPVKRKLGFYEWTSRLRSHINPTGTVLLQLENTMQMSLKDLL
Rango complex inh: qHTS Assay for Inhibitors of Rango (Ran-regulated importin-beta cargo) - Importin beta complex formation | Potency, µM (top dose mostly 92.2 µM), without a hit: at the highest dose inhibition of complex formation | 340,000 compounds, 0.031% hits | Rango CFP/YFP FRET sensor + importin beta, 45 min | AID 540263, 2011; active = rising FRET ratio curve, often small or poorly fitted; inconclusive = mostly compound fluorescence or quenching in the first reads; inactive = flat curves in all reads;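 note: potency is the fitted concentration of half-maximal effect; 0% = DMSO wells and 100% = buffer wells lacking importin beta; nearly all actives have a fitted effect of over 15% in size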
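Inhibition scored from the CFP 486 nm/YFP 530 nm FRET ratio 45 min after adding 0.125 microM importin beta to 50 nM Rango biosensor preincubated 5 min with compound (room temperature, PBS with DTT, Tween-20, BSA). No-importin wells as positive control.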
Rango dissoc inh: qHTS Assay for Inhibitors of RanGTP induced Rango (Ran-regulated importin-beta cargo) - Importin beta complex dissociation. Biochemical FRET Rango-importin beta, RanGTP-induced dissociation. Potency, µM (highest dose often 46.1 µM), for inactives: at the top dose activity change, negative = inhibition. 340,000 compounds, 0.071% hits. AID 540253, 2011; active means falling FRET ratio curve, often poorly fitted, with flat reads before Ran was added; inconclusive means other falling curves, or compound fluorescence or quenching; inactive means flat or rising ratio curve;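 note: potency is the fitted concentration of half-maximal effect; % of control where 0% means no effect; nearly all actives have a fitted effect of over 45% in size; -100% = wells without RanGTP and RCC1; the record marks most hits as doubtful in a second field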
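Quantitative HTS using a FRET biosensor: 0.1 uM Rango, 0.25 uM importin beta, 0.6 uM Ran, 2 mM GTP, 0.2 uM RCC1 final, PBS with DTT, Tween-20 and BSA. Post-read taken 45 min after Ran addition.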
Numbers without * were called inactive; ? = inconclusive; nt = not tested or not shown; & = joins results of further samples. A portion of the library. The share of hits here may be higher or lower than overall.

SMILES	miR-21 reporter	GLA inh pH 4.5	Rango complex inh	Rango dissoc inh
COc1ccc(CCNC(=O)COC(=O)/C=C/c2ccc(OCC#N)c(OC)c2)cc1	1%	-2	0.3%	-10%
CC1(C)CC(NC(=O)c2cccc(Cl)c2)CC(C)(C)N1	-1%	nt	1.4%	-8%
CCOC(=O)C1=C(C)C(c2ccccc2OC)NC(=O)N1 (stereo not drawn)	-2%	5	-2.5%	0%
CC(=O)c1cccc(NC(=O)c2cc(C)nn2-c2ccccc2)c1	-16%	nt	-2.5%	15%
Cc1ccc(NS(=O)(=O)c2cc(C(=O)N3CCOCC3)ccc2C)cc1C	-2%	-2	-0.6%	10%
Cc1ccc2c(c1)N(CC(=O)NC1CCCC1)C(=O)CO2	-5%	nt	-0.6%	0%
Cc1cc(NC(=O)CSc2ccc3nnc(-c4cccs4)n3n2)no1	1%	4	-0.8%	0%
CN(C(=O)Cn1cc([N+](=O)[O-])ccc1=O)C1CCCCC1	nt	nt	-1.2%	1%
CCC(CO)Oc1cc(NC(=O)c2ccc(Cl)cc2)c2ncn(C(C)C)c2c1 (stereo not drawn)	nt	nt	-0.7%	2%
CC(=O)Nc1cccc(C(=O)/C=C/c2ccc(Br)cc2)c1	?	0	2.0%	19%
Cc1ccc(NC(=O)CCCCCNS(=O)(=O)c2ccc(C)cc2)cc1	-4%	2	-3.8%	-16%
CCOc1ccc(C(=O)Nc2c(C(=O)N3CCC(N4CCCCC4)CC3)oc3ccccc23)cc1	-6%	nt	1.5%	-9%
O=c1c2ccccc2[nH]c(=S)n1Cc1ccccc1	-4%	nt	-2.4%	-4%
Cc1ccc(C)c(S(=O)(=O)C(C#N)c2nc3ccccc3nc2N2CCOCC2)c1 (stereo not drawn)	-1%	-8	?	?
CC(=O)c1cccc(Nc2cc(C)nc3ccc(C)cc23)c1	?	-5	4.2%	-8%
O=C(Nc1cc(C2CC2)nn1-c1ccccc1)c1ccc(F)cc1	nt	nt	3.5%	-3%
COc1ccc(NC(=O)CSCCc2ccccn2)cc1OC	-12%	-6	-2.3%	7%
COc1ccc(C)cc1NC(=O)CN1c2cccc3cccc(c23)S1(=O)=O	nt	nt	?	-18%
CC(OC(=O)Cc1c[nH]c2ccccc12)C(=O)NC1(C#N)CCCCC1 (stereo not drawn)	0%	nt	-3.0%	-21%
Cc1c(Cl)cccc1NC(=O)CSc1nnc(C)n1CC1CCCO1 (stereo not drawn)	4%	nt	?	-6%
O=C(Nc1ccccc1)c1ccccc1NC(=O)[C@H]1CCCC[C@H]1C(=O)O	-23%	nt	0.4%	-13%
O=C(Nc1cccnc1Cl)C1=NN(c2ccccc2)C(=O)CC1	-32%	nt	-3.9%	1%
Cc1ccc2c(c1)N(CCC(=O)NCc1cccnc1)C(=O)CO2	-1%	-4	0.0%	10%
Cc1cccc(/C=N\Nc2cn[nH]c(=O)c2Cl)c1	-75%	?	0.1%	3%
CN(C)S(=O)(=O)N1CCCC(C(=O)c2ccc(C(F)(F)F)cc2)C1 (stereo not drawn)	-1%	-13	0.1%	-9%

2 entries from above, field by field.
compound: COc1ccc(NC(=O)CSCCc2ccccn2)cc1OC
  miR-21 reporter: -12% | GLA inh pH 4.5: -6 | Rango complex inh: -2.3% | Rango dissoc inh: 7%
compound: Cc1ccc2c(c1)N(CC(=O)NC1CCCC1)C(=O)CO2
  miR-21 reporter: -5% | GLA inh pH 4.5: nt | Rango complex inh: -0.6% | Rango dissoc inh: 0%

More structures.
SMILES	miR-21 reporter	GLA inh pH 4.5	Rango complex inh	Rango dissoc inh
O=C(CC1(O)C(=O)Nc2ccc(Br)cc21)c1ccc2c(c1)OCO2 (stereo not drawn)	-16%	5	-4.6%	24%
OC(c1ccccc1)(C1CCCCC1)C(CN1CCOCC1)c1ccccc1 (stereo not drawn)	17%	nt	-0.6%	-1%
O=C(NC1CCS(=O)(=O)C1)C12CC3CC(CC(C3)C1)C2 (stereo not drawn)	-5%	0	-2.4%	6%
O=C(CSc1nc(-c2ccc(F)cc2)cs1)Nc1ccccn1	-3%	26	3.5%	-15%
O=CN1CCN(C(=O)c2ccc(-c3nc4ccccc4s3)s2)CC1	-39%	3	2.9%	17%
Cc1cccc(NC(=O)N2CCN(Cc3ccccc3)CC2)c1	-42%	-3	-0.6%	1%
Cc1cc(C)nc(NS(=O)(=O)c2ccc(NC(=O)C3COc4ccccc4O3)cc2)n1 (stereo not drawn)	-6%	11	0.3%	-5%
COC(=O)c1ccc(NC(=O)CSc2nc(=O)n3cccc(C)c3n2)cc1	nt	nt	-3.8%	16%
COc1ccc(Cc2nc3ccc(C(=O)NCC4COCCO4)cc3o2)cc1OC (stereo not drawn)	0%	nt	-1.8%	0%
Cc1ccc(N(CC(=O)N2CCCC2)S(C)(=O)=O)cc1C	-3%	nt	0.4%	-9%
O=S1(=O)c2c(Oc3cccc4ccccc34)cccc2OC(COCc2ccccc2)CN1C1CCCC1 (stereo not drawn)	nt	nt	0.8%	-8%
O=C1C=C(N2CCOCC2)C2(CCCCC2)O1	-53%	-18	1.5%	-20%
O=C(Nc1ccc(CN2CCOCC2)cc1)c1cc(Cl)ccc1Cl	-9%	nt	-1.6%	2%
COc1ccc(NC(=O)c2ccccc2NS(=O)(=O)c2ccc(CNC(C)=O)cc2)c(OC)c1	17%	nt	3.8%	1%
COc1ccc(-c2csc3nc(-c4ccccc4F)oc(=O)c23)cc1	-8%	-2	3.3%	6%
COc1ccccc1NC(=O)NC1(C(=O)N2CCOCC2)CCCCC1	-4%	nt	-0.1%	-3%
COCc1nnc(NC(=O)c2ccc(S(=O)(=O)N3CCCC3)cc2)o1	-3%	nt	-2.0%	1%
c1cncc(-c2nn3cnnc3s2)c1	-1%	-2	-2.1%	-12%
COc1ccccc1NC(=O)C(C(C)C)N1C(=O)c2ccccc2C1=O (stereo not drawn)	1%	nt	1.7%	-3%
CCOCCn1c(SCCc2ccccc2)nc2c1c(=O)[nH]c(=O)n2C	-14%	1	-0.7%	-5%
CCC(C)N=C1SCC(C)(/C=N/O)S1 (stereo not drawn)	-2%	-2	0.2%	1%
Cc1cccc(SCc2noc(C(=O)NCC3CCCO3)c2C(=O)O)c1 (stereo not drawn)	-2%	0	7.3%	63%
CC1=CC2=NC(=O)CC(C)(C(=O)N(CC(=O)NC(C)(C)C)Cc3ccccc3)N2C=C1 (stereo not drawn)	-1%	-1	2.1%	10%
Cc1c(C(=O)NN)[nH]c2ccc([N+](=O)[O-])cc12	26%	-1	6.1%	-16%
Cc1ccc(-n2nnnc2SCC(=O)Nc2ccccc2N2CCCCC2)cc1C	1%	3	-0.8%	15%
Next structures follow:
SMILES	miR-21 reporter	GLA inh pH 4.5	Rango complex inh	Rango dissoc inh
O=C(CSc1nnc(CNC(=O)c2ccc(F)cc2)o1)NCc1ccccc1Cl	-2%	nt	0.0%	-8%
COC(C(=O)N/N=C(\C)CC(=O)Nc1ccc(N(C)C)cc1)c1ccccc1 (stereo not drawn)	-3%	3	-3.3%	4%
C=CCC1Cc2c(cccc2[N+](=O)[O-])C(CC=C)N1 (stereo not drawn)	-3%	1	1.1%	16%
Cc1ccc(C(=O)Nc2ccc(C(=O)O)cc2)cc1S(=O)(=O)Nc1cccc([N+](=O)[O-])c1	-1%	-8	3.7%	20%
Cc1ccc(C(=O)N2CC(C)OC(C)C2)cc1[N+](=O)[O-] (stereo not drawn)	1%	-8	0.5%	-3%
COc1ccc(C(=O)COC(=O)/C=C/c2ccccc2)cc1	-6%	nt	-1.0%	-1%
CCc1ccccc1NC(=S)N=Nc1c(O)n(C)c2ccc(S(=O)(=O)N3CCOCC3)cc12	-3%	-20	3.3%	-6%
O=C(CSc1nc2ccc([N+](=O)[O-])cc2[nH]1)NC1CCCC1	1%	0	5.8%	0%
O=C(N/N=C/C1CC=CCC1)c1cc(Br)ccc1O (stereo not drawn)	-11%	-4	-1.5%	1%
O=C1OC(c2ccccc2)/C(=C(/O)c2ccccc2)C1=O (stereo not drawn)	-16%	0	0.4%	0%
O=C(CSc1nnc(-c2ccccc2Cl)o1)N1CCCC1	-31%	nt	-0.7%	-6%
CN(C(=O)c1cc2c(s1)-c1ccccc1S(=O)(=O)C2)c1ccccc1F	-22%	-19	0.0%	-12%
CC(NC(=O)c1cc(-c2ccc3c(c2)OCO3)nc2ccccc12)C(C)(C)C (stereo not drawn)	-1%	10	0.5%	11%
CCC(=O)N1CCN=C1SCc1ccc(Cl)cc1	-6%	5	4.3%	-6%
COc1ccc(CCNS(=O)(=O)c2c(C)nc3scc(C)n3c2=O)cc1OC	-6%	nt	3.4%	13%
Cc1ccc(-c2ccc(SCC(=O)Nc3cc(C)on3)nn2)cc1	-3%	-1	-0.1%	-16%
COc1ccc(NC2CC(=O)N(c3cccc(C)c3)C2=O)cc1 (stereo not drawn)	-15%	-8	-1.2%	-10%
O=C(O)c1ccccc1NC(=O)C(c1ccccc1)c1ccccc1	nt	nt	-0.4%	1%
CCOC(=O)C1=C(C)Nc2ccccc2N=C1NC(=O)Cc1ccc(Cl)c(Cl)c1	-4%	7	3.4%	4%
Cc1ccc(S(=O)(=O)N2CCCCC2)cc1NC(=O)CSc1nccn1C	-1%	-5	-0.2%	-20%
NC(=O)C[n+]1cccc(C(N)=O)c1	-2%	-12	-4.4%	-12%
CCSc1nnc(NS(=O)(=O)c2ccc(OC)cc2)s1	-7%	-4	0.2%	-4%
COc1ccc(CN2CCN(c3ccccn3)CC2)c(OC)c1C	6%	-8	2.3%&0.7%	?
O=C(CN1C(=O)C2(OCCO2)c2ccccc21)c1ccc(Br)cc1	-8%	0	-1.2%	7%
COc1cccc(N2C(=NC(=O)COc3ccccc3)SC3CS(=O)(=O)CC32)c1 (stereo not drawn)	-2%	nt	5.0%	-12%
Continuation.
SMILES	miR-21 reporter	GLA inh pH 4.5	Rango complex inh	Rango dissoc inh
C/C(=N\NC(=O)CSc1nc(C)cc(C)n1)c1cccs1	-13%	2	1.2%	-20%
S=C(NCCc1ccccc1)Nc1cccc2cnccc12	16%	4	-2.1%	-9%
COc1ccc(/C=C/C(=O)c2ccccc2O)cc1CN1CCOCC1	-3%	-5	-0.2%	-19%
CCOC(=O)c1sc(=NC(=O)c2ccc(OC(C)C)cc2)n(C)c1C	-12%	-11	0.1%	0%
COc1ccc(N(CC(=O)Nc2cc(OC)ccc2OC)S(=O)(=O)c2c(C)noc2C)cc1	18%	nt	0.3%	13%
c1ccc(N2CCN(c3ccc4nncn4n3)CC2)nc1	-8%	-5	-3.6%	-13%
O=C(C1=C[C@H](c2ccc(C(F)(F)F)cc2)C[C@H](OCCCCO)O1)N1CCN(Cc2ccc3c(c2)OCO3)CC1	23%	-4	-3.8%	-3%
CC(C)(C)c1ccc(OCc2ccc(C(=O)N/N=C/c3ccc(O)c(O)c3)cc2)cc1	3%	-3	-1.9%	0%
CCN(C(=O)CSc1nnc2nc(C)cc(C)n12)c1ccccc1	3%	-14	-3.1%	14%
CCCC(=O)C1=C(N(C)c2ccccc2)CC(C)(C)CC1=O	1%	nt	0.5%	1%
CCCCn1nc(C(=O)Nc2cccc(C(=O)NC3CC3)c2)c2ccccc2c1=O	nt	nt	1.2%	-5%
CCOCC(=O)Nc1cc(OC)c(Cl)cc1OC	-3%	-8	0.0%	1%
O=C(CSc1n[nH]c(-c2ccc(S(=O)(=O)N3CCCCC3)cc2)n1)Nc1nccs1	9%	-1	0.5%	10%
S=c1[nH]nc(COc2ccccc2)n1Cc1ccccc1	1%	4	6.4%	-14%
Cc1cccc(NC(=S)NCCCN2CCOCC2)c1	-1%	2	-1.1%	11%

3 compounds drawn at random from the list so far:
SMILES	miR-21 reporter	GLA inh pH 4.5	Rango complex inh	Rango dissoc inh
O=C(CSc1n[nH]c(-c2ccc(S(=O)(=O)N3CCCCC3)cc2)n1)Nc1nccs1	9%	-1	0.5%	10%
Cc1cccc(NC(=S)NCCCN2CCOCC2)c1	-1%	2	-1.1%	11%
COc1ccc(/C=C/C(=O)c2ccccc2O)cc1CN1CCOCC1	-3%	-5	-0.2%	-19%
